# MLL AF4-AF9 inh: blocks AF4 peptide binding to human AF9; P42568; AlphaScreen, biotin-AF4 peptide binding to FLAG-AF9; inhibition, % at 10 µM; actives 0.47% (n = 350,000);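 active = every replicate reaching a set inhibition limit, whatever the replicate mean, cut at about 25% in these data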;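 note: 0% = plate neutral control median and 100% = total signal loss; the record names both 10 and 1 µM as test concentration; the first replicate is given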
# Target sequence (P42568 whole entry, looked up): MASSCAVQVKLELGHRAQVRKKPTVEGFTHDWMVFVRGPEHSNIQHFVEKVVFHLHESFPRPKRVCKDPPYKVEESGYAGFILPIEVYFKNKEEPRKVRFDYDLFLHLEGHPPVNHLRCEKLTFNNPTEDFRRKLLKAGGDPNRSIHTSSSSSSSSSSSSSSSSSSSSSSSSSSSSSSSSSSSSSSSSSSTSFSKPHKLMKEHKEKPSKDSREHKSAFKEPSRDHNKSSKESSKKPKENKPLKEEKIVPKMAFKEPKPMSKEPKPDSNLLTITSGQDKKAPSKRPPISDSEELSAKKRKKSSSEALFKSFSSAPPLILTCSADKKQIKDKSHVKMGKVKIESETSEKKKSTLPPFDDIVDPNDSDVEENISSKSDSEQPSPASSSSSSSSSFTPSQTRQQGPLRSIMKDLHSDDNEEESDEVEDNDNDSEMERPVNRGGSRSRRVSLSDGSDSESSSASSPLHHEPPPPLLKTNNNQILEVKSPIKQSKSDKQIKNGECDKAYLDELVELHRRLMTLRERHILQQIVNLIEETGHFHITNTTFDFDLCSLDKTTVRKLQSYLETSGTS
# T cruzi inh: T. cruzi replication inhibition. inhibition, % (concentration not given with the values). actives 1.4% (n = 300,000). T. cruzi beta-gal in NIH3T3, luminescence, 90 h. AID 1885;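 active = mean inhibition across valid replicates above about 55%, limit read from the data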;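 note: signal also drops with host cell toxicity which is not excluded here; 0% = plate median of DMSO wells and 100% = zero luminescence signal; higher percent means less beta-gal luminescence so fewer parasites; stock transfer was 50 nL into about 50 µL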
# FGF22 binding: FGF22 (human) thermal shift binding; Q9HCT0; recombinant FGF22 thermal shift, SYPRO orange fluorescence; percent of sucrose octasulfate shift, DMSO zero; calls only at 9.99 µM; actives 1.5% (n = 340,000); AID 651658;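 active = melting point raised past a set limit in the mean and every replicate; three in four hits are not shown here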
# Target sequence (Q9HCT0 whole entry, looked up): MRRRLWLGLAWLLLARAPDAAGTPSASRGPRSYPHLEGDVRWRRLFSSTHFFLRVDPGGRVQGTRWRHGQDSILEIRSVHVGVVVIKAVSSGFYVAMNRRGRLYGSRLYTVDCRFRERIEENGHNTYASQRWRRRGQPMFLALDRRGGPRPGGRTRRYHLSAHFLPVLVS
# Beta apoptosis: beta cell apoptosis inhibition; AID 435005; INS-1E cytokine-induced death, ATP luminescence, 48 h; percent of positive-control rescue, neutral wells zero; protection from apoptosis, % (no concentration beside the values); actives 0.8% (n = 300,000);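 active = all replicates at 75% or more, or half of them and the mean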;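 note: 0% = cytokine-treated negative control wells and 100% = positive control rescue; higher means more ATP so stronger rescue from cytokine killing; wells of about 40 µL received 100 nL stock; the first replicate is given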
# UCH37 inh: human UCH37 deubiquitinating enzyme inhibition. actives 0.33% (n = 330,000). purified proteasome/UCH37, Ub-AMC cleavage fluorescence. inhibition, % (test concentration not listed). AID 588478;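 active = mean of two replicates above 20%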;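 note: 0% = compound-free wells with enzyme and 100% = wells lacking proteasome; stock transfer was 100 nL into about 20 µL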
# Target sequence (Q9Y5K5 whole entry, looked up): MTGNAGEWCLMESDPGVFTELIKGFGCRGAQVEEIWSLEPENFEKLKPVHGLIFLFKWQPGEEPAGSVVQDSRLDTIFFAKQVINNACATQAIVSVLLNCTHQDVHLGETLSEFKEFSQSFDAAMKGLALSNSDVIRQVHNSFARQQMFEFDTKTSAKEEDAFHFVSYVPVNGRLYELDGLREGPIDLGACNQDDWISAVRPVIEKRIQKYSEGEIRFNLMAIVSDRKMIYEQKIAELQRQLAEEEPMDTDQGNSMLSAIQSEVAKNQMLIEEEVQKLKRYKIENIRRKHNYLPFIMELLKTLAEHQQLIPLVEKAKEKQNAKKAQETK
#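 system = Proteasome-associated human UCH37 deubiquitinase | amount = 0.15 nM proteasome as dispensed | medium = pH 7.4 Tris-HCl (50 mM) with ovalbumin, ATP-MgCl2, DTT | incubation = 30 min preincubation with enzyme, 25 min cleavage at room temperature | detection = AMC fluorescence 355/460 nm | read-out basis = percent inhibition | controls = no-proteasome and no-compound wells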
# Bfl-1 A1 inh: inhibitors of the anti-apoptotic protein A1, read as caspase activation; MEF A1-2A-BIM cells, Caspase-Glo 3/7 luminescence, 3 h; percent of clofoctol response, vehicle zero; AID 2462; actives 0.066% (n = 330,000); caspase activation, % (no concentration beside the values);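 active = over half of replicate activation scores above 10%, or exactly half above 10 with the replicate mean above 10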;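 note: wells of about 30 µL received 50 nL stock; many hits fall short of the cut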
# E coli growth: blocks Escherichia coli growth; actives 0.21% (n = 330,000); OD600 absorbance (concentration not given with the values); OD600, 23 h; active compounds read low;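 active = OD600 absorbance below the run mean of sample wells minus 3.6 SD, in any replicate, cut at about 0.56 in these data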;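 note: stock transfer was 300 nL into about 60 µL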
# rRNA inh HTS: selective bacterial rRNA inhibition in E. coli. E. coli WT GFP vs humanized-ribosome RFP mutants, fluorescence, 24 h; active compounds read low; DMSO median 0, no signal -100. actives 1.6% (n = 350,000). GFP signal change (wild-type ribosome), % (concentration not given with the values);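 active = significant combined selectivity score with lowered wild-type GFP, culture density cut under 30%, mutant RFP and density less affected; inactive = any of these conditions unmet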; note: one replicate is shown; some compounds called inactive have numbers as strong as hits
# rRNA inh HTS OD600: also measured in rRNA inh HTS; calls as there; OD600 change, %; measured here: OD600 growth;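 optical density of the mix in the first replicate; 0 = DMSO median and -100 = no signal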
# rRNA inh HTS RFP: further read-out of rRNA inh HTS, marked with its call; RFP signal change, %; measured here: RFP humanized mutant strains;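 first replicate; 0 = DMSO median and -100 = no signal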
# Active calls of the source: *; i = inactive; x = not tested or not shown; & = joins results of further samples.
entry	Structure	Bfl-1 A1 inh	E coli growth	rRNA inh HTS RFP	FGF22 binding	rRNA inh HTS	T cruzi inh	rRNA inh HTS OD600	Beta apoptosis	MLL AF4-AF9 inh	UCH37 inh
1	CCC1C(c2ccccc2)NC(c2ccccc2)CC1(O)c1ccc(F)cc1 (stereo unspecified)	0.4	0.67	2.3	i	-37	15	-53	25	4.9	3.9
2	COc1ccc(SCC2CN(C)CCC2c2ccc(F)cc2)cc1 (stereo unspecified)	-0.3	0.6	7.1*	i	-33*	x	-27*	-4	2.3	3.0
3	CCC(=NCC1CCCO1)c1c(O)n(-c2ccccc2)c(=O)[nH]c1=O (stereo unspecified)	0.4	0.7	x	x	x	-15	x	-4	x	-1.7
4	O=C(Cc1ccc([N+](=O)[O-])cc1)N1CCN(Cc2ccc3c(c2)OCO3)CC1	-0.1	0.64	0.4	i	-2	-6	-1	0	-0.9	1.2
5	CCc1ccc(N2C(=O)NC(=O)C(CCc3ccncc3)(CCc3ccncc3)C2=O)cc1	0.3	0.7	x	x	x	2	x	-6	x	-1.0
6	Cc1cccc(-n2c(-c3cccs3)nc3ccccc3c2=O)c1	-0.1	0.7	x	x	x	21	x	5	x	-0.6
7	Cc1cccc(N2CCc3c2nc2ccccc2c3N)c1	2.2&0.2	0.75&0.69	1.6	i	-3	39	-4	22&8	6.0	-353
8	CC(=O)OC1(c2ccccc2)CCN(C)C2CCCCC21 (stereo unspecified)	1.4	0.68	x	x	x	-5	x	-5	x	-1.4
9	CCN(CC)C(=O)Oc1ccc(NC(=O)N2CCOCC2)cc1	-0.8	0.67	0.0	i	1	-6	8	x	-6.3	1.0
10	Cn1c(O)c(C(=N)COc2cccc(Cl)c2)c(=O)n(C)c1=O	-1.1	0.75	-1.4	x	9	-2	6	5	x	4.0
11	COC(=O)C1=C(c2cccc(OCc3ccccc3)c2)C[C@@H]2CC[C@H]1N2C(=O)NCCOc1ccccc1Cl	-1.0	x	9.6	i	26	x	17	2	-3.3	0.4
12	CCCCCn1c(=O)c(C(=O)NC(C)c2ccccc2)c(O)c2ccccc21 (stereo unspecified)	1.2	0.66	5.8	i	24	52	20	109*	-2.1	-1.4
13	Nc1cc(Cl)c2nonc2c1[N+](=O)[O-]	-1.7	0.44*	x	x	x	x	x	-1	x	16
14	CC(C)Cn1cc(C(=O)N2CCC3(CC2)OCCO3)c2c3ccccc3n(C)c2c1=O	0.2	0.71	x	x	x	12	x	3	x	-203
15	COC(=O)C1=C(c2ccc(F)cc2F)C[C@@H]2CC[C@H]1N2C(=O)NCc1ccco1	-0.7	0.76	0.0	i	6	x	4	-2	5.0	-0.9
16	O=C(COc1ccccc1Cl)N1CCCC(N2CCN(c3ccc(F)cc3)CC2)C1 (stereo unspecified)	0.0	0.7	-7.1	i	-38	24	-53	6	4.3	2.5
17	Cc1cccc(CCNCc2cc3ccc(C)cc3[nH]c2=O)c1	-0.8	0.66	6.6	i	-1	8	-1	x	-1.9	1.2
18	COC(=O)C1=C(c2cccc(OC)c2OC)C[C@@H]2CC[C@H]1N2C(=O)NC(C)C	0.3	x	-11	i	4	-24	-3	-11	-5.1	0.1
19	Cc1c(CC(=O)N2C[C@H]3C[C@@H](C2)c2cccc(=O)n2C3)c(=O)oc2c(C)c(O)ccc12	-0.5	0.68	x	i	x	-17	x	x	3.2	i
20	C=CCn1c(O)c(C(CC)=Nc2cccc(C(=O)O)c2)c(=O)[nH]c1=O	-0.9	0.68	5.3	i	7	-9	2	-2	-8.6	1.6
21	CN(C)C1(CNC(=O)c2ccc(NS(=O)(=O)c3ccc(Cl)c(Cl)c3)cc2)CCCCC1	0.5	0.68	4.2	i	0	x	-13	-2	4.6	4.0
22	CN(C)C(Cc1ccccc1)C(=O)c1ccc(-c2ccccc2)cc1 (stereo unspecified)	-0.4	0.62	-5.5	i	-21	10	-21	-8	-6.3	0.6
23	CC(=NCC1CCCO1)c1c(O)n(-c2ccccc2C)c(=O)[nH]c1=O (stereo unspecified)	-0.5	0.69	0.3	i	10	-8	14	-17	0.9	-1.9
24	CCCOC(=O)c1ccc(-[n+]2c(-c3ccccc3)cc(-c3ccccc3)cc2-c2ccccc2)cc1	0.0	0.67	-35	i	-57	55*	-80	123*	19	2.7
25	CCNC(=S)N1CCn2cccc2C1c1cccnc1 (stereo unspecified)	1.3	0.7	-0.7	i	20	30	20	-13	5.2	5.7
26	Cc1cc(O)c2c(c1)OC(C)(C)C1=C2CC(C)CC1 (stereo unspecified)	0.7	0.67	-3.1	i	-10	19	-20	18	1.5	5.2
27	COC(=O)C1=C(c2ccc(F)cc2OCc2ccccc2)C[C@@H]2CC[C@H]1N2C(=O)NCCCOC(C)C	0.6	x	-0.2	i	-13	x	-27	0	0.3	2.1
28	CCOC(=O)C1SC2(C(F)(F)C(F)F)CC1(O)c1c(c(OC)c3occc3c1OC)O2 (stereo unspecified)	0.1	0.67	x	x	x	4	x	-8	x	3.2
29	O=c1[nH]c(=O)n(CCC2=CCCCC2)c(O)c1/C=N/Nc1cccc2ccccc12	-0.1	0.71	3.8	i	5	28	-2	8	4.8	2.1
30	Cc1ccccc1N1CCN(C2CCCN(C(=O)Cc3c(C)noc3C)C2)CC1 (stereo unspecified)	0.0	0.67	-1.2	i	4	8	-1	2	-0.8	-0.6
31	O=C1NS(=O)c2cc([N+](=O)[O-])cc([N+](=O)[O-])c21 (stereo unspecified)	0.3	0.69	-2.7	i	19	0	21	x	-4.7	5.6
32	Cn1c(O)c(/C=N/N2CCCCC2)c(=O)[nH]c1=O	0.2	0.72	x	i	x	-12	x	-2	-0.5	6.4
33	CCOC(=O)c1c(/N=C/C2C(=O)NC(=O)NC2=O)sc2c1CCC2	0.9	x	6.9	i	27	-9	11	x	-2.8	x
34	CNP1(NC)=Nc2nn(-c3ccccc3)c(N)c2C(c2ccccc2)=N1	-0.2	0.67	x	x	x	-4	x	x	x	1.7
35	Cc1cccc(-n2c(-c3ccc([N+](=O)[O-])cc3)nc3ccccc3c2=O)c1	0.0	0.71	-0.4	x	1	17	4	3	0.2	1.3
36	Cc1cc(C)c(S(=O)(=O)NCC2CCC(C(=O)N3CCC4(CC3)OCCO4)CC2)c(C)c1 (stereo unspecified)	0.4	0.66	18	i	-15	41	-26	-6	-19	1.1
37	CC(C(=O)Nc1ccc(Br)cc1C(=O)c1ccccc1)N1CCCCC1 (stereo unspecified)	0.6	0.72	x	x	x	0	x	3	x	1.1
38	COC(=O)C1=C(c2ccc(F)cc2OCc2ccccc2)C[C@@H]2CC[C@H]1N2C(=O)N1CCC(O)(c2ccc(Cl)cc2)CC1	0.0	x	-9.3	i	2	x	4	8	-62	0.7
39	Cc1ccc(/C=C2/C(=O)NC(=O)N(CC3CCCO3)C2=O)s1 (stereo unspecified)	0.0	0.7	x	i	x	-17	x	-2	-2.7	5.4
40	Oc1ccccc1-[n+]1c(-c2ccccc2)cc(-c2ccccc2)c(O)c1-c1ccccc1	0.4	0.72	4.1	i	9	2	27	-13	0.5	-29
41	C=C[C@@H]1C2=CCOC(=O)C2=CO[C@H]1O[C@@H]1O[C@H](CO)[C@@H](O)[C@H](O)[C@H]1O	-0.8	0.8	-8.7	i	2	x	5	-3	-1.3	2.5
42	O=C(Cc1ccccc1)Oc1ccc(N2C(=O)C3CCCCC3C2=O)cc1 (stereo unspecified)	-0.5	0.72	x	x	x	-10	x	-8	x	5.0
43	COc1cc(/C=C/[N+](=O)[O-])ccc1O	-0.2	x	5.2	i	-14	-17	11	-9	3.8	3.6
44	C[C@]12CCC3C(CC[C@H]4C[C@@H](O)CC[C@]34C)C1C/C(=N/O)[C@@H]2O (stereo partly specified)	1.5	0.68	4.0	i	1	x	7	13	-3.5	2.7
45	CN1CC2=CC(O)CC3Oc4c(O)ccc(c4[C@]23C)C1 (stereo partly specified)	0.0	0.68	x	i	x	-5	x	-4	-2.4	0.1
46	Cc1c(Cl)cccc1NC(=S)N1CC2CC(C1)c1cccc(=O)n1C2 (stereo unspecified)	0.4	0.72	x	x	x	0	x	-4	x	0.2
47	O=C(C1CC(=O)N(C2CCCC2)C1)N1CCC2(CC1)OCCO2 (stereo unspecified)	0.1	0.65	x	x	x	-9	x	-4	x	4.0
48	Cc1nc2cc(C(F)(F)F)ccc2n1C1CCN(Cc2nnnn2CCc2ccccc2)CC1	-0.1	0.74	x	x	x	-1	x	3	x	-1.4
49	O=C(COC(=O)Cc1ccccc1)Nc1cc(S(=O)(=O)N2CCCCC2)ccc1Cl	0.4	0.65	0.4	i	0	-1	-4	-5	1.8	0.0
50	COC(=O)C1=C(c2ccccc2)C[C@@H]2CC[C@H]1N2C(=O)NC1CC1	-0.8	x	-1.2	i	6	4	8	-10	-2.9	2.6

# Additional results follow.
entry	Structure	Bfl-1 A1 inh	E coli growth	rRNA inh HTS RFP	FGF22 binding	rRNA inh HTS	T cruzi inh	rRNA inh HTS OD600	Beta apoptosis	MLL AF4-AF9 inh	UCH37 inh
51	CN1C(=O)C(=Cc2ccc(N3CCOCC3)o2)C(=O)N(C)C1=O	0.6	0.69	x	x	x	-2	x	2	x	30*
52	CC(=O)c1cn(CC(=O)NCCc2c[nH]c3ccccc23)c2ccccc12	0.4	0.66	2.8	i	-8	-32	-8	6	1.5	6.5
53	CCCCC(=O)N/N=C/c1c(O)n(-c2cccc3ccccc23)c(=O)[nH]c1=O	1.2	0.63	-0.2	i	-3	1	6	-1	-3.0	7.1
54	COc1cc2ccc(=O)oc2c2ccoc12	-0.4	0.65	-16	i	-3	9	-8	-7	0.2	-52
55	Cc1cc(C=C2C(=O)NC(=S)NC2=O)c(C)n1-c1ccc2c(c1)OCO2	-0.8	0.66	x	x	x	-1	x	-7	x	2.3
56	CC(Cc1ccccc1)NC(=O)c1ccc(N)cc1 (stereo unspecified)	-0.5	0.66	-1.9	i	11	4	2	-10	6.0	6.0
57	COc1ccccc1CNCCc1ccc(F)cc1	-0.3	0.68	2.7	i	7	52	12	-4	-30	1.3
58	Cc1ccc(-n2c(C)cc(/C=C3\C(=O)NC(=O)N(C)C3=O)c2C)cc1C	-0.1	0.69	6.7	i	5	-12	-8	0	-1.5	-17
59	NC(Cc1nc2ccccc2[nH]1)c1ccc(Cl)cc1 (stereo unspecified)	0.3	0.65	-13*	i	-45*	-3	-21*	2	x	-8.3
60	Cc1ccc(Cn2nc(C)c(C=O)c2Cl)cc1	0.3	0.71	-1.9	i	2	12	15	-6	0.6	0.8
61	CC(C)(C)c1ccc(C(=O)C2CCCN(C3CCC3)C2)cc1 (stereo unspecified)	-1.2	0.62	-5.9	i	-7	28	-8	0	3.2	3.0
62	CCN1CCN(Cc2nnnn2C(C)(C)C)CC1	0.7	0.78	x	x	x	-5	x	-3	x	2.6
63	O=C(Nc1ccc(Br)cc1)N1C[C@H]2C[C@@H](C1)c1cccc(=O)n1C2	0.5	0.79	1.1	i	4	1	-4	x	-12	1.2
64	COc1ccc(OC)c(N2C(=O)CC(=O)NC2=O)c1	-0.5	0.66	-1.1	i	7	-24	12	-10	-1.1	1.5
65	CN(Cc1ccccc1)C(=O)CN1CCCC1=O	0.4	0.65	61	i	-3	-3	-3	x	-1.5	2.0
66	Cn1c(O)c(Cc2cccc(Cl)c2Cl)c(=O)n(C)c1=O	-0.5	0.66	-4.2	i	3	-6	9	-4	-2.5	2.8

# Bioassay records as filed in PubChem.

# An excerpt (hit frequency here may not be typical).
